Source: PubChem BioAssay
PrP 5UTR inh = inhibition of PrP 5' UTR reporter expression; cell-based PrP 5' UTR mRNA reporter, plate reader; inhibition, % (test concentration not listed); 340,000 compounds, 0.35% hits; AID 488862, 2010;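 active = every replicate at 50% or more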;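 also: 0 = median of the neutral control wells; tested in H4 reporter cells; numbers are from one replicate; inactives centre near -14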
Mtb hypoxia rep = PubChem AID 1159583; 300,000 compounds, 0.1% hits; M. tuberculosis hypoxia-regulated fluorescent reporter, fluorescence; fluorescence inhibition, % (concentration not given with the values);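 active = 35 to 45% if threefold the growth effect, above 45% if 1.5-fold the growth effect; inactive = the rest, general growth blockers included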;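 also: wells of about 50 µL received 100 nL stock; 0% = vehicle wells and 100% = reference inhibitor wells; whole bacteria with a GFP reporter of the hypoxia response; strong numbers were not always called active; many hits fall short of the cut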
Bead autofluor = flagged as autofluorescent in microsphere protease counterscreen; compound autofluorescence counterscreen, microsphere flow cytometry; active compounds read high; fluorescence intensity (concentration not given with the values); 360,000 compounds, 3.1% hits;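 active = at least 3 SD above the mean of all compounds, about 16000 in these data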;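 also: 100 nL of 1 mM stock went into each well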
BJeLR viability = MLPCN primary cell-based screen for lethality selective to Ras in HRASV12 cells; BJeLR (HRASV12) viability, CellTiter-Glo ATP luminescence, 48 h; reference of the scale not given here; inhibition, % (test concentration not listed); 300,000 compounds, 0.17% hits;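 active = replicate mean above 50%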;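 also: 50 nL library stock added to about 25 µL; numbers are from one replicate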
ugtP null kill = growth inhibition of ugtP-null S. aureus, primary screen, RN4220 ugtP deletion, OD600. 16 h; some inactives read as strong as hits. growth inhibition, % (test concentration not listed). 330,000 compounds, 0.54% hits;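 active = z-score under -3 and OD600 up to 0.15 on both plates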;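 also: plate controls were untreated wells for no effect and antibiotic for full effect; wells of about 80 µL received 100 nL stock; the first replicate is given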
Sa RN4220 lethal = growth inhibition of S. aureus RN4220, primary screen, OD600 | 330,000 compounds, 0.33% hits | 16 h | inhibition, % (concentration not given with the values) | AID 1259311, 2017;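 active = z-score of -3 or lower and OD600 up to 0.18 on both plates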;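 also: plate controls were untreated cells for no effect and reference antibiotic for full effect; stock transfer was 100 nL into about 80 µL; one replicate is shown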
Mtb hypoxia rep growth = second read-out of Mtb hypoxia rep, no call of its own (marks repeat the call); growth inhibition, %; measured here: M. tuberculosis growth (absorbance);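 0% = vehicle and 100% = reference antibiotic; read after six days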
* marks the source's active call; other numbers are inactive results; nt = no result given.

The opening 14 records as a preview:
SMILES	PrP 5UTR inh	Mtb hypoxia rep	Mtb hypoxia rep growth	Bead autofluor	BJeLR viability	ugtP null kill	Sa RN4220 lethal
C=CCN1C(=O)/C(=C/c2ccc(OCC(=O)O)cc2)SC1=Nc1nccs1	nt	12	11	nt	nt	-3	4.6
Nc1ccc(C(=O)OCc2nc3c(ccc4ccccc43)[nH]2)cc1	-56	nt	nt	4317	-2	-7	-9.5
COc1cc(CN2CCCC(C(=O)Nc3ccccc3Oc3cccnc3)C2)ccc1F (stereo unspecified)	-15	6	1	5990	4	-1	0.1
O=C(Nc1nnc(-c2ccccc2F)s1)c1ccccc1F	-47	4	-15	3619	-3	-3	1.9
COCCNC(=O)c1c(CS(=O)(=O)c2ccccc2)noc1C(=O)NCc1ccccc1	-9	9	9	4171	9	0	4.5
COc1ccc2c(c1)C=C(CN1CCC(CO)(CCc3ccccc3)CC1)CO2	-18	4	-4	5043	4	-5	1.6
CCC(C)NC(=O)CSc1ccc(Cl)cc1 (stereo unspecified)	-14	nt	nt	2307	4	7	0.7
O=C(NCCCc1ccccc1)[C@@H]1Cc2ccccc2CN1	-22	-10	12	3691	1	3	1.6
COC(=O)c1c(C)cc(C)c2c1CC(C)(C)C2=O	-1	14	8	8410	-13	7	5.7
Cn1c(CSCc2ccc(Cl)c(Cl)c2)n[nH]c1=S	-13	13	6	9444	4	21	6.6
COC(=O)Nc1ccc(S(=O)(=O)N2CCCc3cccc(O)c32)cc1	1	11	13	2979	9	0	11
COc1nc(C)nc(C)c1Oc1ccc(Cl)cc1Cl	-16	5	3	5689	-4	4	1.1
CCOC(=O)Cn1c(=NC(=O)CSC(C)=O)sc2ccccc21	-22	12	8	5734	-1	-3	-8.6
Cc1csc(NC(=O)CSc2ccc3nnc(-c4ccncc4)n3n2)n1	-7	3	-7	2192	3	1	1.7

The listing, from the first entry:
SMILES	PrP 5UTR inh	Mtb hypoxia rep	Mtb hypoxia rep growth	Bead autofluor	BJeLR viability	ugtP null kill	Sa RN4220 lethal
C=CCN1C(=O)/C(=C/c2ccc(OCC(=O)O)cc2)SC1=Nc1nccs1	nt	12	11	nt	nt	-3	4.6
Nc1ccc(C(=O)OCc2nc3c(ccc4ccccc43)[nH]2)cc1	-56	nt	nt	4317	-2	-7	-9.5
COc1cc(CN2CCCC(C(=O)Nc3ccccc3Oc3cccnc3)C2)ccc1F (stereo unspecified)	-15	6	1	5990	4	-1	0.1
O=C(Nc1nnc(-c2ccccc2F)s1)c1ccccc1F	-47	4	-15	3619	-3	-3	1.9
COCCNC(=O)c1c(CS(=O)(=O)c2ccccc2)noc1C(=O)NCc1ccccc1	-9	9	9	4171	9	0	4.5
COc1ccc2c(c1)C=C(CN1CCC(CO)(CCc3ccccc3)CC1)CO2	-18	4	-4	5043	4	-5	1.6
CCC(C)NC(=O)CSc1ccc(Cl)cc1 (stereo unspecified)	-14	nt	nt	2307	4	7	0.7
O=C(NCCCc1ccccc1)[C@@H]1Cc2ccccc2CN1	-22	-10	12	3691	1	3	1.6
COC(=O)c1c(C)cc(C)c2c1CC(C)(C)C2=O	-1	14	8	8410	-13	7	5.7
Cn1c(CSCc2ccc(Cl)c(Cl)c2)n[nH]c1=S	-13	13	6	9444	4	21	6.6
COC(=O)Nc1ccc(S(=O)(=O)N2CCCc3cccc(O)c32)cc1	1	11	13	2979	9	0	11
COc1nc(C)nc(C)c1Oc1ccc(Cl)cc1Cl	-16	5	3	5689	-4	4	1.1
CCOC(=O)Cn1c(=NC(=O)CSC(C)=O)sc2ccccc21	-22	12	8	5734	-1	-3	-8.6
Cc1csc(NC(=O)CSc2ccc3nnc(-c4ccncc4)n3n2)n1	-7	3	-7	2192	3	1	1.7
Cc1ccc(S(=O)(=O)Nc2ccc3c(c2)CC(=O)N(C(C)CO)CC(C)C(CN(C)S(=O)(=O)c2ccccc2)O3)cc1 (stereo unspecified)	nt	8	1	nt	nt	0	4.3
CCOC(=O)CC(NS(=O)(=O)Cc1ccccc1)c1ccc(C)cc1 (stereo unspecified)	-8	-10	16	2650	-3	-7	-0.3
Nn1c(N2CCCCC2)nc2ccccc21	-14	nt	nt	2650	-2	5	-4.1
CCCc1nnc(SCC(=O)N2C(C)CCCC2C)n1CC1CCCO1 (stereo unspecified)	-10	1	3	4827	5	5	-5.4
Cc1cccc(Cl)c1OCCCn1ccnc1	-25	5	-1	4067	-6	5	6.3
O=C(NN=Cc1cccc(Oc2ccc([N+](=O)[O-])cc2[N+](=O)[O-])c1)c1cncc(Br)c1	nt	6	-9	nt	nt	0	5.1

Full records from above:
`CCCc1nnc(SCC(=O)N2C(C)CCCC2C)n1CC1CCCO1` (stereo unspecified) is listed as PrP 5UTR inh = -10; Mtb hypoxia rep = 1; Mtb hypoxia rep growth = 3; Bead autofluor = 4827; BJeLR viability = 5; ugtP null kill = 5; Sa RN4220 lethal = -5.4
`Nn1c(N2CCCCC2)nc2ccccc21` is listed as PrP 5UTR inh = -14; Mtb hypoxia rep = nt; Mtb hypoxia rep growth = nt; Bead autofluor = 2650; BJeLR viability = -2; ugtP null kill = 5; Sa RN4220 lethal = -4.1

The list continues:
SMILES	PrP 5UTR inh	Mtb hypoxia rep	Mtb hypoxia rep growth	Bead autofluor	BJeLR viability	ugtP null kill	Sa RN4220 lethal
CN1CCC(NC(=O)c2ccncc2)CC1	-15	-4	-4	3854	-2	2	-0.1
C=CCN1C(=O)c2ccc(C(=O)N(C)CC(=O)Nc3ccccc3C(F)(F)F)cc2C1=O	3	7	-4	5492	11	3	2.6
COc1ccc(CCN(Cc2ccc(C(C)C)cc2)S(=O)(=O)c2ccc(S(=O)(=O)N(C)C)cc2)cc1OC	-29	-4	5	2447	0	1	-2.1
Cc1nn(CCC(=O)NCCc2ccccc2Cl)c(=O)c2nn(-c3ccccc3)c(C)c12	-8	7	5	5351	-5	5	1.8
O=C(CN(C(=O)CNS(=O)(=O)c1ccccc1)c1ccc2c(c1)OCCO2)NC1CCCCC1	-26	nt	nt	6824	-11	-2	4.5
Cc1nn(-c2ccccc2)c(Oc2ccccc2)c1C=O	-9	5	4	2821	3	10	-0.6
O=C(Nc1cccnc1)c1ccc(-c2cc(Cl)ccc2Cl)o1	-24	7	11	2108	0	-8	5.9
O=C(Nc1ccccc1)C(=O)Nc1cccnc1	-79	12	3	6193	3	-1	4.2
Cc1ccc2[nH]c3c(c2c1)CN(C(=O)CN1CCN(c2ccccc2)CC1)CC3	nt	2	9	nt	-4	-13	-17
C(=C\c1ccccc1)/CN1CCN(Cc2nc(Cc3ccccc3)no2)CC1	-9	12	0	2736	11	10	3.4
O=Cc1ccc(Oc2nc(Cl)ncc2F)cc1	-16	2	12	3621	6	-9	-1.4
Cc1ccc2c(c1)[nH]c1c(=O)n(Cc3ccco3)cnc12	-40	14	7	3331	1	0	7.5
O=C(Nc1ccc(F)cc1)c1cc(S(=O)(=O)Nc2ccc(F)cc2)cs1	-1	2	0	2826	-10	-46	-4.6
O=C1C2C3C=CC(C3)C2C(=O)N1CNc1ccccn1 (stereo unspecified)	-22	6	0	3665	-3	2	4.6
CC(CCc1ccccc1)NC(=O)c1ccc(Cl)nc1 (stereo unspecified)	-49	nt	nt	4444	-18	8	-1.3
CC(Oc1ccc(Cl)cc1)C(=O)Nc1ccc(S(=O)(=O)Nc2nccs2)cc1 (stereo unspecified)	-18	-3	17	3180	1	-9	22
CC1CCC2C(=O)N(c3ccc(NC4CCCCC4)c([N+](=O)[O-])c3)C(=O)C2C1 (stereo unspecified)	-14	1	2	2054	2	-6	3.0
O=S(=O)(Nc1ccc(Cl)cn1)c1ccc(F)cc1	-15	-7	-7	3969	-7	6	2.9
